# Screening data as filed in PubChem.
# Vif A3G – inhibitors of Vif binding to APOBEC3G peptide, primary screen, biochemical, TR-FRET, GST-Vif 1-94, biotin-A3G peptide, dose response retest (AID 1117319); TR-FRET GST-Vif / biotin-A3G peptide binding; higher % means a stronger effect; test concentration not given here; strong numbers were not always called active; hit rate 0.57% among 260,000; inhibition, %; hits with a dose series show IC50 in µM;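 active means above the screen mean plus three standard deviations and confirmed in dose response; inconclusive means results disagree or hit not tested in dose response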;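 further: Vif residues 1-94 fused to GST binding biotinylated APOBEC3G peptide 110-148; 0% = full assay without inhibitor and 100% = GST in place of GST-Vif; retest series ran down from 100 µM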
# Ecoli rRNA inh – inhibits bacterial ribosomal RNA function over humanized ribosomes. E. coli WT GFP vs humanized-ribosome RFP mutants, fluorescence, 24 h; active compounds read low; DMSO median 0, no signal -100. GFP signal change (wild-type ribosome), % (no concentration beside the values). hit rate 1.6% among 350,000;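 active means significant combined selectivity score with lowered wild-type GFP, culture density cut under 30%, mutant RFP and density less affected; inactive means any of these conditions unmet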; further: one replicate is shown; some compounds called inactive have numbers as strong as hits
# FGF22 binding – binders of recombinant human FGF22 by thermal shift | hit rate 1.5% among 340,000 | calls only at 9.99 µM | SYPRO orange fluorescence; percent of sucrose octasulfate shift, DMSO zero | Q9HCT0 | AID 651658;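 active means melting point raised past a set limit in the mean and every replicate; inconclusive means no clear call; three in four hits are not shown here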
# Target sequence (Q9HCT0 whole entry, looked up): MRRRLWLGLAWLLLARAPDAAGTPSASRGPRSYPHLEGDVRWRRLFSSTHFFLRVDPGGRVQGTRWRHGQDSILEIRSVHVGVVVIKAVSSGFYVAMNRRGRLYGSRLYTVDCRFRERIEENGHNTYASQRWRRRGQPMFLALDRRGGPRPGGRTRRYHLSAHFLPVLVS
# E coli growth – inhibitors of Escherichia coli growth; OD600, 23 h; active compounds read low; AID 1053175; OD600 absorbance (test concentration not listed); hit rate 0.21% among 330,000;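 active means OD600 absorbance below the run mean of sample wells minus 3.6 SD, in any replicate, cut at about 0.56 in these data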;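 further: stock transfer was 300 nL into about 60 µL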
# ALR H2O2 inh – blocks human ALR sulfhydryl oxidase activity | inhibition, % (test concentration not listed) | hit rate 3.8% among 290,000 | purified ALR, DTT oxidation, H2O2 HRP-luminol luminescence | P55789;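 active means mean and each replicate at 75% or more; inconclusive means only one of the two met; inactive means neither met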;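 further: stock transfer was 7.5 nL into about 7.5 µL; 0% = neutral wells and 100% = wells with inactivated enzyme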
# Target sequence (P55789 whole entry, looked up): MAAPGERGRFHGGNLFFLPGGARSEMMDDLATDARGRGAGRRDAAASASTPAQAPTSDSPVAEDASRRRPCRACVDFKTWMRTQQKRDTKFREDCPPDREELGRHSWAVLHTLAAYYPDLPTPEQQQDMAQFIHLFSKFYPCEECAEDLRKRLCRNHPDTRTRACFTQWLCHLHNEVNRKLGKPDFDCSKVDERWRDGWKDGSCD
# MLL AF4-AF9 inh – inhibitors of human MLL-AF4/AF9 interaction; AlphaScreen, biotin-AF4 peptide binding to FLAG-AF9; inhibition, % at 10 µM; hit rate 0.47% among 350,000; AID 651704;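 active means every replicate reaching a set inhibition limit, whatever the replicate mean, cut at about 25% in these data; inconclusive means mean inhibition reaches that limit but some replicates miss it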;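 further: 0% = plate neutral control median and 100% = total signal loss; the record names both 10 and 1 µM as test concentration; the first replicate is given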
# HNF4A DNA FP – change in binding of human HNF4 alpha to DNA; activity change, % at 10 µM; HNF4a-FITC DNA binding, fluorescence polarization, 1 h; hit rate 0.3% among 360,000; in the data active means activity change above about 30%, passing the limit was not always enough;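 further: controls were the assay level and a saturating level of protein; the project sought stronger binding though the title names inhibitors; some compounds called inactive have numbers as strong as hits; positive values seem to mean higher polarization but the record does not say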
# Target sequence (P41235 whole entry, looked up): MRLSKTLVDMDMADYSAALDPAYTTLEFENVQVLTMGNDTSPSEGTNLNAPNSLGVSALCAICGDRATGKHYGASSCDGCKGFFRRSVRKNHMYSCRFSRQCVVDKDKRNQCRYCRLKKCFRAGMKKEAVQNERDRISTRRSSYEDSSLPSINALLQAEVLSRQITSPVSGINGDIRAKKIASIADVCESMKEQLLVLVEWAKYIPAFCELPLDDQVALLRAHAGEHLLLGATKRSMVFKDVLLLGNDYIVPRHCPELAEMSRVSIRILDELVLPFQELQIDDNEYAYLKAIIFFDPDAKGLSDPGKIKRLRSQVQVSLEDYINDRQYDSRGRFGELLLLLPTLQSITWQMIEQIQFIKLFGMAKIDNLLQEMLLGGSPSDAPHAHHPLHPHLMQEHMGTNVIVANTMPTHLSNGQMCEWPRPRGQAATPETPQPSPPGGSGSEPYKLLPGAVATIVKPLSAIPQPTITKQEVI
# Ecoli rRNA inh OD600 – recorded beside Ecoli rRNA inh, whose call it bears; OD600 change, %; measured here: OD600 growth;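 optical density of the mix in the first replicate; 0 = DMSO median and -100 = no signal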
# Ecoli rRNA inh RFP – further read-out of Ecoli rRNA inh, marked with its call; RFP signal change, %; measured here: RFP humanized mutant strains;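 first replicate; 0 = DMSO median and -100 = no signal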
# Active calls of the source: *; i = inactive; ? = inconclusive; · = no result given; & = joins results of further samples. Not all compounds are listed; the hit share may differ from the screen's.
Vif A3G	Ecoli rRNA inh	Ecoli rRNA inh OD600	Ecoli rRNA inh RFP	FGF22 binding	E coli growth	ALR H2O2 inh	MLL AF4-AF9 inh	HNF4A DNA FP	mol
·	0	1	-0.8	i	·	·	-4.6	·	C[C@@H]1CN([C@@H](C)CO)C(=O)c2cc(C#Cc3ccccn3)cnc2O[C@@H]1CN(C)C(=O)c1cnccn1
·	-8	-14	2.9	i	0.78	-4	-0.6	-2.8	COc1ccc(S(=O)(=O)N(C)C[C@H]2Oc3c(cccc3N(C)C)C(=O)N([C@H](C)CO)C[C@@H]2C)cc1
-1%	·	·	·	i	0.67	-7	-1.4	-1.5	Cn1c(=O)c2c(nc(Sc3ncccn3)n2Cc2ccccc2Cl)n(C)c1=O
·	-1	7	-3.3	i	·	·	0.4	0.2	CCCNC(=O)C1(C)CCN(C(=O)c2cccc(Cl)c2)C1 (centres undefined)
·	12	13	-1.4	i	·	0	0.9	5.9	CN(C)c1oc(/C=C/c2cccs2)nc1S(=O)(=O)c1ccccc1
-4%	-5	-12	2.3	i	0.68	-4	8.7	0.0	CC(OCCN1CCCC1)(c1ccc(F)cc1)c1ccc(F)cc1
?	-36	-53	38	·	0.64	·	5.4	23	COc1cc(/C=C2\SC(=S)N(C(C(=O)O)c3ccccc3)C2=O)ccc1O (centres undefined)
·	-1	7	-0.3	i	·	·	-7.5	·	C[C@H](CO)N1C[C@H](C)[C@H](CN(C)C(=O)CCCN(C)C)OCc2cnnn2CCCC1=O
5%	34	16	15	i	0.7	-50	-3.4	3.1	O=C(O)c1ccc(Nc2ncc([N+](=O)[O-])cc2[N+](=O)[O-])cc1
·	2	16	-0.8	i	0.67	0	5.5	7.3	COc1cccc(NC(=O)Cn2cnc3c(oc4nc5c(cc43)CCCC5)c2=O)c1
2%	·	·	·	·	0.73	-2	·	4.5	CC1CCN(C(=O)CN(C2CCCCC2)S(C)(=O)=O)CC1
-5%	-12	-7	-6.2	i	0.7	-12	0.4	-2.1	O=C(COc1ccc(S(=O)(=O)NCc2ccccc2)cc1Cl)NCC1CCCO1 (centres undefined)
·	-19	-22	5.4	i	·	·	-28	0.3	CCOC(=O)[C@]12CCC=C1N(Cc1ccc3c(c1)OCO3)C(=O)[C@H](CC(=O)NCc1ccccc1)C2
10%	·	·	·	·	0.75	4	·	1.6	COc1ccccc1Nc1nc(-c2cccc(N3C(=O)c4ccccc4C3=O)c2)cs1
-1%	-15	-14	5.4	i	0.7	4	1.7	2.6	CSc1ccc(CN(C)C(=O)c2cccc(S(=O)(=O)N3CCN(Cc4ccccc4)CC3)c2)cc1
-5%	-3	9	-3.4	i	·	38	4.8	-2.6	CCOc1cc(/C=N/O)ccc1OCc1ccc(F)cc1
·	5	-7	11	i	·	·	4.5	·	C[C@@H]1CN([C@H](C)CO)S(=O)(=O)c2ccc(C3=CCCCC3)cc2O[C@@H]1CN(C)Cc1cncnc1
71%	·	·	·	·	0.69	25	·	2.6	CCS(=O)(=O)n1nc(-c2ccc(Cl)cc2)nc1SC
·	13	7	0.6	i	0.68	-5	-0.8	3.3	C=CCc1ccc(OCCCOc2ccc(C(=O)O)cc2)c(OC)c1
·	2	-40	-2.6	i	0.64	·	-5.0	-1.4	O=C(Nc1ccccc1N1CCOCC1)c1cccc(Oc2ccccc2)c1
4%	·	·	·	·	0.77	0	·	3.3	CN(C)CCCN1C(=O)C(=O)/C(=C(/O)c2ccncc2)C1c1cccc(Br)c1 (centres undefined)
5%	·	·	·	·	0.6	-1	·	11	O=C(O)c1cc(-c2ccncc2)nc2ccc(S(=O)(=O)N3CCOCC3)cc12
17%	6	0	4.4	i	0.67	13	0.6	0.0	Cc1c(C(=O)c2ccccc2)c2ccccn2c1CCC#N
·	-1	-5	0.3	i	·	·	-1.1	·	CNC(=O)C[C@H]1CC[C@@H]2[C@H](COc3ccc(NC(=O)Nc4ccc(Cl)cc4)cc3C(=O)N2C)O1
-3%	14	11	5.4	i	0.73	·	-6.6	7.7	Cc1nn(-c2ccccc2)c(C)c1NC(=O)COC(=O)c1ccc(NC(=O)CC#N)cc1
8%	·	·	·	·	0.72	-28	·	3.5	COc1ccc(NC(=O)N(CCN2CCCC2)Cc2cc3cc(OC)c(OC)cc3[nH]c2=O)cc1
6%	-2	-1	-0.9	·	0.69	98*	·	0.6	CSc1cccc(NC(=O)c2ccco2)c1
·	6	9	6.5	i	0.62	66	-1.8	-3.0	N#Cc1ccccc1NC(=S)NC(=O)C1CCC1
-2%	-4	-6	2.6	·	0.7	·	1.5	-17	COc1ccc(CN2CCN(C(=O)c3ccc(S(=O)(=O)NCc4ccco4)cc3)CC2)cc1F
-2%	-10	-24	-2.4	i	0.7	0	-16	-0.2	COc1cc(-c2nc(CCNC(=O)c3ccco3)cs2)cc(OC)c1OC

# (next part)
Vif A3G	Ecoli rRNA inh	Ecoli rRNA inh OD600	Ecoli rRNA inh RFP	FGF22 binding	E coli growth	ALR H2O2 inh	MLL AF4-AF9 inh	HNF4A DNA FP	mol
·	·	·	·	i	0.69	-8	-1.3	0.3	Nc1ncnc2c1ncn2C1CCCC1
-10%	·	·	·	·	0.73	-3	·	-1.1	Cc1cc2nc(-c3cccc(NC(=O)c4ccc(Br)o4)c3C)oc2cc1C
-2%	1	10	-0.2	i	0.64	-1	-0.8	1.7	COc1ccc(NS(=O)(=O)c2cccc(C(=O)NCC(c3ccco3)N(C)C)c2)cc1 (centres undefined)
·	-20	-52	9.6	i	·	·	-2.7	·	N#C[C@H]1[C@H](c2ccccc2C2=CCCCC2)[C@H](CO)N1S(=O)(=O)c1ccccc1
-11%	8	4	-3.7	i	0.71	·	-0.7	0.3	OCCN1CCN(CC(O)COCC2COc3ccccc3O2)CC1 (centres undefined)
·	5	12	4.0	i	·	·	-3.9	·	O=C1[C@@H]2[C@H](C(=O)N1C[C@@H](COCc1ccccc1)Oc1cccc3c1S(=O)(=O)N(CCc1ccc(F)cc1)C[C@H](COCc1ccccc1)O3)[C@@H]1C=C[C@H]2C1
-5%	·	·	·	·	0.67	7	·	0.5	Cc1ccc(C2CC(c3ccccc3)=NN2c2ccccc2)o1 (centres undefined)
33%&1%	·	·	·	·	0.63	71	·	-4.0	COc1ccc(N2CCN(Cc3nc4c(c(=O)[nH]c(=O)n4C)n3CCCc3ccccc3)CC2)cc1
-18%	·	·	·	·	0.7	·	·	2.4	COc1ccc(NC(=O)C2CCN(c3cc(-c4ccccc4)nc4ncnn34)CC2)cc1OC
·	-5	-24	-5.0	i	·	·	-1.5	-2.5	N#CC1C=Cc2c(ccc3ccccc23)N1C(=O)c1ccccc1 (centres undefined)
·	3	-1	-1.0	i	0.67	-4	1.7	6.9	CCCn1c(=O)c2[nH]cnc2n(-c2ccc(Cl)cc2)c1=O
·	3	19	2.3	i	·	·	-14	·	C[C@H]1CCCCO[C@H](CN(C)Cc2ccc(Cl)c(Cl)c2)[C@@H](C)CN([C@@H](C)CO)C(=O)c2cc(NC(=O)Nc3cccc4ccccc34)ccc2O1
·	0	-2	-0.5	i	·	·	-9.6	·	COc1ccccc1S(=O)(=O)Nc1ccc2c(c1)C(=O)N(C)C[C@H](OC)[C@@H](C)CN[C@H](C)CO2
7%	·	·	·	·	0.74	29	·	-1.1	COc1ccc(NC2CC(=O)N(C)C2=O)cc1 (centres undefined)
1%	-32*	-22*	-2.5*	i	0.69	-2	4.3	-4.0	CCOC(=O)c1ccc2[nH]c3c(c2c1)CCCC3O (centres undefined)
11%&-4%	·	·	·	·	0.67	99*	·	-3.9	CCn1c(CNc2ccc(OC)cc2)nnc1SCC(=O)c1ccc(OC)cc1
19%	-21	-19	-5.3	i	0.66	-4	·	-1.8	CCC(=O)Nc1nc2ccccc2n1Cc1ccccc1Cl
·	-7&11	-3&8	-2.8&-0.2	i	·	2	-5.4&-1.2	0.6	C[C@H](CO)N1C[C@H](C)[C@@H](CN(C)C(=O)Nc2ccc(C(F)(F)F)cc2)Oc2ccc(NC(=O)Cn3cnnn3)cc2C1=O
-2%	·	·	·	·	0.74	-1	·	0.3	CC1CCC(=NNC(=O)Cc2ccccc2)CC1 (centres undefined)
·	4	-35	5.1	i	·	·	1.3	-3.7	Cc1ccc(F)cc1C(=O)N1CCCC(c2cc(C(=O)Nc3ccccc3)no2)C1 (centres undefined)
·	-3	-3	0.3	i	·	·	-3.7	·	CC(C)NC(=O)Nc1ccc2c(c1)C(=O)N([C@@H](C)CO)C[C@@H](C)[C@@H](CN(C)C(=O)NC1CCCCC1)OCCCC[C@H](C)O2
·	14	14	0.4	i	0.7	-28	0.1	-0.3	CCOCCCNC(=O)c1cc(=O)n(Cc2cccc(C)c2)c2ccccc12

# Structures from the list above containing a furan ring, fused or not, in the order listed:
Vif A3G	Ecoli rRNA inh	Ecoli rRNA inh OD600	Ecoli rRNA inh RFP	FGF22 binding	E coli growth	ALR H2O2 inh	MLL AF4-AF9 inh	HNF4A DNA FP	mol
·	2	16	-0.8	i	0.67	0	5.5	7.3	COc1cccc(NC(=O)Cn2cnc3c(oc4nc5c(cc43)CCCC5)c2=O)c1
6%	-2	-1	-0.9	·	0.69	98*	·	0.6	CSc1cccc(NC(=O)c2ccco2)c1
-2%	-4	-6	2.6	·	0.7	·	1.5	-17	COc1ccc(CN2CCN(C(=O)c3ccc(S(=O)(=O)NCc4ccco4)cc3)CC2)cc1F
-2%	-10	-24	-2.4	i	0.7	0	-16	-0.2	COc1cc(-c2nc(CCNC(=O)c3ccco3)cs2)cc(OC)c1OC
-10%	·	·	·	·	0.73	-3	·	-1.1	Cc1cc2nc(-c3cccc(NC(=O)c4ccc(Br)o4)c3C)oc2cc1C
-2%	1	10	-0.2	i	0.64	-1	-0.8	1.7	COc1ccc(NS(=O)(=O)c2cccc(C(=O)NCC(c3ccco3)N(C)C)c2)cc1 (centres undefined)
-5%	·	·	·	·	0.67	7	·	0.5	Cc1ccc(C2CC(c3ccccc3)=NN2c2ccccc2)o1 (centres undefined)
